GIRK2 act: activators of human GIRK2 potassium channels. calls only for hits at 25 µM. P48051. 63,000 tested, 0.05% active. AID 1259325. HEK293-GIRK2 thallium flux, Thallos fluorescence;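 active = among the strongest 0.2% of first-round signals and kept after retests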;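 note: first round at about 10 µM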
Target sequence (P48051 whole entry, looked up): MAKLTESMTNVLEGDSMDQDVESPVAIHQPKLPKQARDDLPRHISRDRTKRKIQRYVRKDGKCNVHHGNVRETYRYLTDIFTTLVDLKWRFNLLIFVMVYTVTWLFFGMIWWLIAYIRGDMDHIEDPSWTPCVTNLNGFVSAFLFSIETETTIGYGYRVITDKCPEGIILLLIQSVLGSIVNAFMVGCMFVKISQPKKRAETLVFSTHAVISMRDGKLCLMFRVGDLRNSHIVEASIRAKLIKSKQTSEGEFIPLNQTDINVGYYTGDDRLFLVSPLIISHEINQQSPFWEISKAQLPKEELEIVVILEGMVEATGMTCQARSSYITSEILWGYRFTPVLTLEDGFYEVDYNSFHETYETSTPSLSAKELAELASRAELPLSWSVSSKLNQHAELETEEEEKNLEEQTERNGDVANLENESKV
Calls only; i = inactive. Not all compounds are listed; count on the stated rates, not on these rows.

smiles	GIRK2 act
O=C(Nc1ccc(Br)cc1-c1nc2ccccc2[nH]c1=O)c1ccco1	i
O=C(CCS(=O)(=O)c1ccccc1)OC1CN(c2nc3c(Cl)cccc3s2)C1	i
CCOCC(=O)N1CCC(c2ccc(C(=O)OC)cc2)CC1	i
COc1ccccc1S(=O)(=O)N1CCC(COCc2ccccc2)CC1	i
CCOC(=O)c1ccccc1NC(=O)Cn1nc2c3sc(N4CCCC4)nc3ncn2c1=O	i
C=CCSc1nnc(-c2ccccc2NC(=O)c2ccc(S(C)(=O)=O)cc2)o1	i
CC(C)=CCC[C@](C)(O[C@@H]1O[C@H](CO[C@@H]2O[C@H](CO)[C@@H](O)[C@H](O)[C@H]2O)[C@@H](O)[C@H](O)[C@H]1O)C1CC[C@]2(C)[C@@H]1[C@H](O)CC1[C@@]3(C)CC[C@H](O[C@@H]4O[C@H](CO)[C@@H](O)[C@H](O)[C@H]4O[C@@H]4O[C@H](CO)[C@@H](O)[C@H](O)[C@H]4O)C(C)(C)[C@@H]3CC[C@]12C (some centres not stated)	i
CCOc1ccccc1NC(=O)c1cc(S(=O)(=O)N2CCN(c3ccccc3F)CC2)ccc1F	i
O=C(NCC1CCN(Cc2cccs2)CC1)Nc1cccc(C(F)(F)F)c1	i
CCc1noc(-c2cc(=O)n(CC(=O)NC3CCCCC3)c3ccccc23)n1	i
CC(=O)NNC(=O)c1cccn(Cc2ccc(F)cc2)c1=O	i
O=C(NCc1ccc(F)cc1)NCC1CCN(c2cnccn2)CC1	i
COc1ccc(CCNC(=O)c2snc(-c3ccccn3)c2N)cc1OC	i
CCCCCCCCNC(=O)CC1c2ccccc2N(C(=O)c2ccc(Cl)cc2)C1C (configuration not stated)	i
Cc1cc(C)c(C(=O)Cn2cccc(-c3nc(C4CC4)no3)c2=O)cc1C	i
COc1ccc(C(O)CN2CCN(c3ccccc3F)CC2)cc1OC (configuration not stated)	i
O=C(NCCOc1ccccc1)N(Cc1ccccn1)Cc1ccco1	i
Cc1nnsc1C(=O)N1CCN(c2cc(-n3cccc3)ncn2)CC1	i
Cc1ccccc1NC(=O)N(Cc1ccsc1)C1CC1	i
CC(C)(C)Cc1nnc(C2CCCN(C(=O)c3ccccc3F)C2)o1 (configuration not stated)	i
Cc1ccc(N2CCCS2(=O)=O)cc1NC(=O)c1cc(=O)c2ccccc2o1	i
Cn1cc(C2=C(c3cn(-c4ccccc4)c4ccccc34)C(=O)NC2=O)c2ccccc21	i
CCOc1ccc(S(=O)(=O)N2CCCC(c3nnc(-c4cccs4)o3)C2)cc1 (configuration not stated)	i
O=C(NCc1ccc(F)cc1)N1CCN(c2nc3ccc([N+](=O)[O-])cc3s2)CC1	i
Cc1cc(S(=O)(=O)N2CC(c3nc(-c4ccccc4)no3)C2)c(Cl)cc1Cl	i
O=C(/C=C/c1cccs1)N(Cc1ccoc1)Cc1cccs1	i
Cc1csc(C(=O)N2CC(c3nc(C)no3)C2)c1	i
COc1ccc(C2CCN(C(=O)c3ccccc3OC)C2)cc1 (configuration not stated)	i
CC1C(=O)N2CCCc3cc(NC(=O)C(=O)NCC4CCN(C(=O)/C=C/c5ccco5)CC4)cc1c32 (configuration not stated)	i
CCOc1ccc(/C=C/C(=O)Nc2ccc(N3CCOCC3)cc2)cc1OC	i
O=C(O)CCn1c2c(c3ccccc31)CC(NS(=O)(=O)c1ccc(F)cc1)CC2 (configuration not stated)	i
O=C(Nc1ncc(Cc2cccc(C(F)(F)F)c2)s1)c1ccc2nnsc2c1	i
COc1ccc(OC)c(N2CCn3c2nc2c3c(=O)[nH]c(=O)n2C)c1	i
CN(Cc1ccccc1)c1oc(-c2ccc(S(=O)(=O)N3CCOCC3)cc2)nc1C#N	i
COc1ccc(-c2cc3nn(CC(=O)NCc4ccc(C)cc4)c(=O)n3c(C)n2)cc1	i
Cc1nn(C)cc1C(=O)NCc1ccccc1Cl	i
Cc1ccc(-c2ccnc3c(C(=O)NCc4ccc5c(c4)OCO5)cnn23)cc1C	i
COc1ccc(S(=O)(=O)CCC(=O)Nc2ccc(Cl)c3ncsc23)cc1	i
O=C(Nc1ccc(C(F)(F)F)cc1)C(=O)NC1CCCC1	i
CCCn1c(=O)c2cc(F)ccc2n2c(SCC(=O)NCc3ccc(C)cc3)nnc12	i
COc1cccc(NC(=O)N2CCN(c3cc(OC(C)C)nc(C)n3)CC2)c1	i
O=C(Cc1ccc(-n2c(=O)[nH]c3ccsc3c2=O)cc1)N1CCC(N2CCCCC2)CC1	i
COc1ccc(NC(=O)Cn2nc(N3CCSCC3)c3ccccc3c2=O)cc1	i
CC(=O)CN1N=C(c2ccccc2)Cn2c1nc1c2c(=O)n(C)c(=O)n1C	i
CC(C)c1ccc(Cn2c(CCO)nc3ccccc32)cc1	i
C#CCOCC1CCCN(C(=O)c2cc(C3CC3)on2)C1 (configuration not stated)	i
O=C(O)c1cccc(Nc2ncnc3c2oc2ccccc23)c1	i
CSc1ccccc1C(=O)Nc1ccc(-n2nnn(C)c2=O)cc1	i
CC(C)NC(=O)c1nnn(-c2ccccc2Cl)c1-c1cccnc1	i
COc1ccccc1-c1nnc(C2CCN(C(=O)C(C)(C)C)CC2)s1	i

(further entries)
smiles	GIRK2 act
COCCCNC(=O)/C(C#N)=C1\N=C(NC(=O)c2ccc(Cl)cc2)c2ccccc21	i
COc1ccc(Br)cc1-c1nc(Cn2nnc(C(=O)Nc3ccccc3C)c2C)c(C)o1	i
CCC(C)NC(=O)CCc1nnc2n(Cc3ccc(Cl)cc3)c(=O)c3ccccc3n12 (configuration not stated)	i
N#Cc1c(SCCC(=O)Nc2nccs2)nc2c(c1C(F)(F)F)CCCC2	i
NS(=O)(=O)c1ccc(NS(=O)(=O)c2ccc(NC(=O)c3ccccc3)cc2)cc1	i
CCOc1ccccc1NC(=O)c1cn(Cc2ccc(NC(=O)Cc3ccc(OC)cc3)cc2)cn1	i
CCn1c(SCC(=O)Nc2ccc(OC)c(OC)c2)nnc1-c1cccn(C)c1=O	i
CCCOc1cccc(C2c3c(oc4cc(C)c(C)cc4c3=O)C(=O)N2CCN(C)C)c1 (configuration not stated)	i
COc1ccc(C(=O)Oc2c(S(=O)(=O)c3ccccc3)c(C)nn2C(C)(C)C)cc1	i
Cc1cc(S(=O)(=O)Nc2ccc(-n3nnn(C)c3=O)cc2)c(Cl)cc1Cl	i
COc1nn(C)cc1C(=O)Nc1ccc(C(=O)NCc2c(F)cccc2F)cc1	i
CC1CN(C(=O)Cn2cnc3c2c(=O)n(C)c(=O)n3C)CC(C)O1 (configuration not stated)	i
O=S(=O)(c1ccc(Br)s1)N1CCC(Oc2ccccn2)CC1	i
Cc1cc(C(F)(F)F)nc(CCNC(=O)C(C)(C)Oc2ccc(Cl)cc2)n1	i
Cc1cc(NS(=O)(=O)c2ccc(NC(=O)c3c(F)cccc3F)cc2)no1	i
COCC(=O)N1CCC(Cn2ccc3cccnc32)CC1	i
O=C(CN1CCC(COCc2ccc(Cl)cc2)CC1)N1CCOCC1	i
CCc1cc(CC)n(-c2nc3c(c(=O)n(C)c(=O)n3C)n2Cc2ccc(OC)cc2)n1	i
CCOc1ccc2ccccc2c1C(=O)NCC(C)(O)CCc1ccccc1 (configuration not stated)	i
COc1ccc(NC(=O)NCC#CCN2CCCCC2)cc1	i
Cn1nnnc1SCC(=O)NCCOc1cccc2cccnc12	i
COc1ccccc1CNC(=O)c1cnn(-c2cc(-c3nc(C)no3)ccn2)c1C	i
COC(=O)c1ccc(Nc2c(C(=O)N3CCCCCC3)cnc3nc(C)ccc23)cc1	i
COc1ccccc1N1CCN(c2cc(SCC(=O)Nc3cccc(Cl)c3)ncn2)CC1	i
Cc1ccc(NC(=O)Cn2cccc(-c3nc(-c4ccc(F)cc4)no3)c2=O)cc1Cl	i
CCCCC1C(=O)CC[C@@H]2C(C/C=C\CCCC(=O)O)C(=O)C[C@H]12 (some centres not stated)	i
COc1ccccc1C(O)Cn1cc(C(=O)Nc2ccc(C(N)=O)cc2)nn1 (configuration not stated)	i
O=C(CSCc1ccccc1)NCCn1ncccc1=O	i
Cc1ccccc1NC(=O)c1cc2c(=O)n3cccc(C)c3nc2n1Cc1ccccc1	i
C=CCN1C(=O)C2(OCCCO2)c2cccc(Cl)c21	i

Part of the list above in order of molar mass, falling.
smiles	GIRK2 act
COC(=O)c1ccc(Nc2c(C(=O)N3CCCCCC3)cnc3nc(C)ccc23)cc1	i
CCCCC1C(=O)CC[C@@H]2C(C/C=C\CCCC(=O)O)C(=O)C[C@H]12 (some centres not stated)	i
O=C(CSCc1ccccc1)NCCn1ncccc1=O	i

Next part.
smiles	GIRK2 act
Clc1cccc(Nc2nc(N3CCCC3)nc(N3CCCC3)n2)c1	i
CSCCC(C)(O)CNC(=O)C(C)(C)C (configuration not stated)	i
Cc1ccc(OCC(O)Cn2c(N3CCN(C)CC3)nc3c2c(=O)n(C)c(=O)n3C)cc1C (configuration not stated)	i
Cc1cc(OCC(=O)NCc2ccccc2)nc(-c2ccc(Cl)cc2)n1	i
O=C(Nc1ccccc1)OC1CCCC(NC(=O)c2cccs2)C1 (configuration not stated)	i
Cn1cc(C(=O)Nc2ccc(Oc3ccccc3)cc2)nn1	i
CCOc1ccccc1Oc1c(C(F)(F)F)oc2cc(OC(=O)N(C)C)ccc2c1=O	i
CCOC(=O)CCn1c(=O)c2c(nc3n(-c4ccc(OCC)cc4)c(C)cn23)n(C)c1=O	i
CCCCC[C@H](O)/C=C/[C@H]1[C@H](O)CC(=O)[C@@H]1CCCCCCC(=O)NCCO	i
Cc1c(C(=O)Nc2ccc(-n3cnnn3)cc2)nnn1-c1ccc2noc(-c3ccc(Cl)cc3)c2c1	i

An excerpt of these results, with each value named.
compound: CSCCC(C)(O)CNC(=O)C(C)(C)C (configuration not stated)
  GIRK2 act: i

compound: Cc1ccc(OCC(O)Cn2c(N3CCN(C)CC3)nc3c2c(=O)n(C)c(=O)n3C)cc1C (configuration not stated)
  GIRK2 act: i

compound: Cc1cc(OCC(=O)NCc2ccccc2)nc(-c2ccc(Cl)cc2)n1
  GIRK2 act: i

compound: O=C(Nc1ccccc1)OC1CCCC(NC(=O)c2cccs2)C1 (configuration not stated)
  GIRK2 act: i

(next part)
smiles	GIRK2 act
Cc1cccc(C)c1N1CCN(CC(O)COc2ccc3c(C)cc(=O)oc3c2)CC1 (configuration not stated)	i
CCOc1ccccc1NC(=O)NCCN1CCC(c2cccs2)CC1	i
COC(=O)c1c(NC(=O)c2cc3ccccc3c(=O)s2)sc2c1CCCC2	i
COc1ccc(CCNC(=O)CSc2nnc(-c3ccc(=O)n(C)c3)n2C)cc1OC	i
COc1ccc(N2CC(c3nc(-c4cccc(C)c4)no3)CC2=O)c(OC)c1 (configuration not stated)	i
CCCCCCCc1cc(O)cc(O)c1	i
Cc1cc(NC(=O)CSc2nnc(C(C)C)c3cnn(-c4ccccc4)c23)no1	i
CCc1[nH]nc(S(=O)(=O)Nc2cc(C)ccc2F)c1C(=O)OC	i
CSc1ccccc1C(=O)NCC1CCN(C(=O)c2ccoc2)CC1	i
COc1cccc(Oc2nccn3c(=O)n(CC(=O)Nc4cccc(C)c4)nc23)c1	i
CONC(=O)CN(C)c1nc2c(F)cccc2s1	i
CC(C)OCCCNc1nc2c(c(=O)n(C)c(=O)n2C)n1CC(O)COc1ccc(Cl)cc1 (configuration not stated)	i
CSc1cccc(NC(=O)CCn2cnc3c([nH]c4ccc(C)cc43)c2=O)c1	i
COc1ccc(C(=O)c2cn(Cc3ccccc3OC)c3cc4c(cc3c2=O)OCO4)cc1	i
Cc1onc(-c2ccccc2Cl)c1C(=O)Nc1cnc(-n2cccn2)nc1	i
O=C1CCSCC(C(=O)Nc2ccc3c(c2)OCO3)N1 (configuration not stated)	i
COc1ccc2c(c1)C=C(C(=O)NCc1ccccc1OC)C=CO2	i
CC(C)NC(=O)N1CCN(c2ccc(-c3noc(C(F)(F)F)n3)cn2)CC1	i
Cc1cccc(NC(=O)C(=O)NCC(O)c2ccoc2)c1 (configuration not stated)	i
O=C(NCCOc1ccccc1)Nc1ccc(Cl)cc1	i
Cc1ccc(S(=O)(=O)NCC2(CO)CC2)cc1C	i
COc1cc(Nc2c(C(=O)N3CCC(C)CC3)cnc3nc(C)ccc23)cc(OC)c1OC	i
CCn1c(=NC(=O)CSC(C)=O)sc2ccccc21	i
COc1ccc(CC(C)(O)CNS(=O)(=O)c2ccc(NC(=O)C(C)C)cc2)cc1 (configuration not stated)	i
COc1cc(-c2noc(-c3nn(-c4cccc(Br)c4)ccc3=O)n2)cc(OC)c1OC	i
Cc1cccc(C(=O)Oc2c(S(=O)(=O)c3ccccc3)c(C)nn2C(C)(C)C)c1	i
O=C(NCCNc1cc(Nc2ccccn2)ncn1)c1cccc(Cl)c1	i
O=C1/C(=C/c2ccc(Cl)cc2)Oc2cc(O)ccc21	i
C[C@@H]1CC[C@H](O)C=CC(=O)O[C@H](C)CC[C@H](O)C=CC(=O)O1	i
COc1cc(/C=C/C(=O)Nc2cc(C)nn2-c2nc(-c3ccccc3)cs2)cc(OC)c1OC	i
COc1cccc(C(=O)N(C(=O)N2CCCCC2)c2ccccc2)c1OC	i
Cc1c(Cl)cccc1NC(=O)CSc1nccnc1N1CCSCC1	i
O=C(Nc1nc2c(s1)CCCC2)c1cc(-n2cccn2)ccn1	i
CCOc1ccccc1NC(=O)Cn1c(C)cc(C)c(S(=O)(=O)c2ccccc2)c1=O	i
CCOc1ccccc1NC(=O)Cn1ccn(-c2cccc(OC)c2)c(=O)c1=O	i
CN(C)c1ncc(NC(=O)c2cccs2)cn1	i
CC(C)(C)OC(=O)N1CCN(C(=O)C2CCN(c3cc(Oc4ccccc4)ncn3)CC2)CC1	i

Bioassay records deposited in PubChem by Vanderbilt University.
